From PubChem
StopGo FLuc – FMDV 2A StopGo reporter, firefly signal | HEK cells with a luciferase reporter of 2A StopGo recoding | Potency, µM (highest dose often 57.5 µM), inactives show top-dose signal change, negative = less light | actives 0.23% (n = 120,000); active = well fitted falling curve with a large enough effect; inconclusive = small, poorly fitted or top-dose-only effect; inactive = no such curve, though single readings can be large or run the other way; further: nearly all actives have a fitted effect of over 60% in size; overnight with compound
StopGo RLuc – lowers the Renilla signal of an FMDV 2A StopGo reporter. HEK cells with a luciferase reporter of 2A StopGo recoding. Potency, µM (titrated, usually from 57.5 µM), for inactives: at the top dose signal change, negative = less light. actives 0.32% (n = 120,000); active means well fitted falling curve with a large enough effect; inconclusive means small, poorly fitted or top-dose-only effect; inactive means no such curve, though single readings can be large or run the other way; further: nearly all actives have a fitted effect of over 55% in size; overnight with compound
Starred values were filed as active, the others as inactive; ? = inconclusive; [ ] = another dose, or the depositor's remark. On the % scale 0 is the no-effect control and ±100 the full control effect; potency means the concentration at half of the fitted maximal effect. Outcome played no part in choosing rows; any-hit rate near 0.55%.

SMILES	StopGo FLuc	StopGo RLuc
Cc1ccc(CSc2nc3ccc(NC(=O)COc4ccccc4)cc3s2)cc1	-20%	-18%
CC(NC(=O)CNC(=O)c1cccs1)c1ccncc1 (stereo not drawn)	11%	8%
COc1ccc(NC(=O)C(CC(C)C)NC(=O)C2CCCCC2)c(OC)c1 (stereo not drawn)	7%	106%[activator]
CC(C)(C)c1ccc(S(=O)(=O)c2cnc(SCC(=O)Nc3ccc4c(c3)OCCO4)[nH]c2=O)cc1	-20%	10%
CCc1ccc(C2c3c(-c4ccccc4O)n[nH]c3C(=O)N2Cc2cccnc2)cc1 (stereo not drawn)	-11%	10%
Cc1ccccc1CCNC(=O)Cn1cc(C(N)=O)c2ccccc21	21%	2%
Fc1ccccc1OCCSc1nc2ccccc2s1	117%[activator]	9%
O=C1CC(c2cccc(O)c2)c2c(nc(SCc3ccccc3F)[nH]c2=O)N1 (stereo not drawn)	51%[activator]	3%
Cc1csc(CNC(=O)c2sccc2C)n1	23%	3%
O=C(OCc1cccs1)C1=NN(C2CCS(=O)(=O)C2)C(=O)CC1 (stereo not drawn)	8%	5%
Cc1ccc(N2C(=O)CSC23C(=O)Nc2ccccc23)cc1Br (stereo not drawn)	-28%	-18%
CC(C)(C)NC(=O)CNC(=O)C1CCCCC1	0%	5%
CCCCc1nc(NCCN2CCOCC2)c(C#N)c2c1CCCC2	-12%	-15%
CCN(Cc1ccccc1)Cc1csc(C)c1C	-6%	-3%
CCONC(=O)C(C)NC(=O)OCc1ccccc1 (stereo not drawn)	1%	-1%
COc1cccc(CNC(=O)c2oc3c(c2C)-c2nn(Cc4cccc(Cl)c4)cc2CC3)c1OC	?	-20%
CC1CCCN(CCCNC(=O)CN2C(=O)CCn3nc(-c4cn(C)c5ccccc45)cc32)C1 (stereo not drawn)	-1%	-7%
CCCNC(=O)c1ccc(-c2nc(CS(=O)(=O)c3ccccc3)c(C)o2)cc1	24%	21%
CCOC(=O)C(O)(c1ccc(N(CC)C(=O)Nc2ccc(Cl)cc2)cc1)C(F)(F)F (stereo not drawn)	8%	-1%
CCOC(=O)C1CCN([C@H]2CS(=O)(=O)C[C@@H]2S(=O)(=O)c2ccc(C)cc2)CC1	3%	-6%

Five compounds picked at random from the list so far, as already listed:
SMILES	StopGo FLuc	StopGo RLuc
COc1cccc(CNC(=O)c2oc3c(c2C)-c2nn(Cc4cccc(Cl)c4)cc2CC3)c1OC	?	-20%
Cc1ccc(CSc2nc3ccc(NC(=O)COc4ccccc4)cc3s2)cc1	-20%	-18%
CCCCc1nc(NCCN2CCOCC2)c(C#N)c2c1CCCC2	-12%	-15%
Cc1ccc(N2C(=O)CSC23C(=O)Nc2ccccc23)cc1Br (stereo not drawn)	-28%	-18%
COc1ccc(NC(=O)C(CC(C)C)NC(=O)C2CCCCC2)c(OC)c1 (stereo not drawn)	7%	106%[activator]

Following part.
SMILES	StopGo FLuc	StopGo RLuc
Cc1oc2ncnc(N3CCOCC3)c2c1C(=O)NCc1ccc(Cl)cc1	-17%	5%
COc1ccc(Br)cc1CNC(=O)CCc1ccc2nc(NC(=O)C(C)C)sc2c1	55%[activator]	162%[activator]
Cc1cc(C)c2[nH]c(CSc3nnc(-c4cccc(F)c4)n3C)cc(=O)c2c1	-7%	-30%
Nc1ncnc2sc3c(c12)CCN(C(=O)c1ccccc1)C3	7%	-2%
CC(C)c1ccc(N2C(=O)CS(=O)(=O)C23C(=O)N(Cc2cccc(F)c2)c2ccccc23)cc1 (stereo not drawn)	-11%	-5%
OCc1ccccc1CNCc1ccccc1	8%	0%
COC(=O)c1ccc(C(=O)NCC2(c3ccccc3)CCC2)cc1	64%[activator]	-3%
Cc1oc(-c2cccs2)nc1CC(=O)Nc1ccccc1Cc1ccccc1	-1%	46%[activator]
CN(CC(=O)Nc1ccccc1F)S(=O)(=O)c1ccc2c(c1)c(=O)n(C)c(=O)n2C	-14%	-9%
O=C(Nc1ccc(OCCc2ccccc2)cc1)c1ccccc1	56%[activator]	41%[activator]
Cc1ccc(N2NC3(CCCC(C)C3)NC2=S)cc1C (stereo not drawn)	57%[activator]	15%
Cc1ccc(OCCNc2ccc(Cl)cc2)cc1	25%	-14%
CCN(CC)C(=O)c1c(-c2ccccc2)c(-c2ccccc2)nn(CC)c1=O	-27%	18%
NS(=O)(=O)c1ccc(N/N=C/c2ccc(-c3ccccc3)cc2)c([N+](=O)[O-])c1	0%	3%
COc1cc(/C=C(/C#N)c2nc3ccccc3[nH]2)ccc1SC	314%[activator]	86%[activator]
CCN(CC)S(=O)(=O)c1ccc(NC(=O)COC(=O)c2nn(C)c(=O)c3ccccc23)cc1	-4%	1%
CCc1cccc(NS(=O)(=O)c2c(C)[nH]c(=O)[nH]c2=O)c1	-13%	5%
COc1ccc(OC)c(NC(=O)c2oc3c(c2C)-c2nn(Cc4ccc(Cl)cc4)cc2CC3)c1	-9%	-3%
Cc1ccc(-n2nc(CO)c(C(=O)NCCCCc3ccccc3)n2)cc1C	-17%	-5%
CN(Cc1cccs1)C(=O)c1cc2ccccc2oc1=O	83%[activator]	67%[activator]
CC(NC(=O)CSc1nnc(-c2ccncc2)n1-c1ccc(F)cc1)c1ccc2c(c1)OCCO2 (stereo not drawn)	-10%	-12%
CCOC(=O)c1cc(C)nc2c1c(=O)n(Cc1nc(-c3cc(C)ccc3C)oc1C)c(=O)n2C	5%	-5%
Cn1c(C(=O)N2CCN(C(=O)c3ccccc3)CC2)cc2ccccc21	0%	-3%
O=C(CN1CC=C(c2ccccc2)CC1)N(C1CCCCC1)C1CCS(=O)(=O)C1 (stereo not drawn)	-13%	-13%
CCc1ccc(-c2nc(CSCC(=O)NCC(OC)OC)c(C)o2)cc1	?	-13%
O=C(Nc1nc2ccc(S(=O)(=O)N3CCCC3)cc2s1)c1cccc(F)c1	56%[activator]	28%
Cc1cccc(C)c1-n1ncc(C(=O)Nc2ccc3c(c2)OCCO3)c1C1CCN(C(=O)OC(C)(C)C)CC1	-26%	8%
O=S(=O)(c1ccc(Br)cc1)c1nc(-c2cccs2)oc1SCc1ccc(F)cc1	-11%	229%[activator]
COc1cc(C#N)ccc1OCc1cc(C#N)ccc1F	-1%	6%
COc1cccc(NC(=O)c2cc(CN3CCOCC3)on2)c1	64%[activator]	-5%
C=CCc1c(C)nc2nc(SCC(=O)Nc3ccccc3CC)nn2c1C	5%	-1%
Cc1c(C#N)c(N)nc2c3c(sc12)NC(=O)CC3c1ccccc1F (stereo not drawn)	23%	47%[activator]
CC(=O)N1CCN(C(C(=O)O)c2c[nH]c3cc(Br)ccc23)CC1 (stereo not drawn)	-13%	-12%
CN(Cc1ccccc1)Cc1nc2c(c(=O)n(C)c(=O)n2C)n1CCc1ccccc1	-14%	5%
Cc1onc(-c2ccccc2Cl)c1C(=O)Oc1cc(F)cc(F)c1	-7%	0%
CCn1c(COc2ccc(Cl)cc2C)n[nH]c1=S	20%	0%
Cc1cccc(C2CC(=O)NC3=C2C(=O)CC(C)(C)C3)c1 (stereo not drawn)	4%	-2%
O=C(O)c1ccc2c(=O)oc(-c3ccccc3)cc2c1	75%[activator]	3%
Cc1cccc(C)c1NC(=O)c1cc(S(=O)(=O)N2CCCc3ccccc32)ccc1F	24%	84%[activator]
Cc1ccc(NC(=O)C(Cc2ccccc2)NS(=O)(=O)c2cccc3nsnc23)c(C)c1 (stereo not drawn)	-3%	150%[activator]

Single records, from the list above. Order of screens: StopGo FLuc | StopGo RLuc
CC1CCCN(CCCNC(=O)CN2C(=O)CCn3nc(-c4cn(C)c5ccccc45)cc32)C1 (stereo not drawn) as listed: -1% | -7%
Cc1csc(CNC(=O)c2sccc2C)n1 as listed: 23% | 3%
CCOC(=O)c1cc(C)nc2c1c(=O)n(Cc1nc(-c3cc(C)ccc3C)oc1C)c(=O)n2C as listed: 5% | -5%
CCCCc1nc(NCCN2CCOCC2)c(C#N)c2c1CCCC2 as listed: -12% | -15%
CC(NC(=O)CSc1nnc(-c2ccncc2)n1-c1ccc(F)cc1)c1ccc2c(c1)OCCO2 (stereo not drawn) as listed: -10% | -12%

(list continues)
SMILES	StopGo FLuc	StopGo RLuc
Cc1ccc(CNC(=O)/C(C#N)=C/c2ccccc2OCc2cccc(C(F)(F)F)c2)cc1	6%	-10%[1.06 µM]
CCN(CC)c1ccc(C2C(C(=O)Nc3ccc(F)cc3F)=C(C)NC3=C2C(=O)CC(C)(C)C3)cc1 (stereo not drawn)	-13%	0%
CCc1nn(CCCC(=O)NCc2ccccc2OC)c(=O)c2cc3occc3n12	-15%	-10%
CCC(CO)NS(=O)(=O)c1ccc(Cl)c(C)c1 (stereo not drawn)	9%	-6%[1.06 µM]
Cc1ccc(NC(=O)C2CCCN2S(=O)(=O)c2cccc3nsnc23)c(Br)c1 (stereo not drawn)	?	12%
OCC#CC[N+]1(CC#Cc2ccccc2)CCOCC1	9%	12%
COc1ccc(N2C(=O)CS(=O)(=O)C23C(=O)N(Cc2ccc(F)cc2)c2ccc(C)cc23)cc1 (stereo not drawn)	?	?
N#Cc1cc(C(=O)c2cc(F)ccc2O)cn(C2CC2)c1=O	2%	2%
CC(CC(=O)Nc1ccc(C(=O)NC2CC2)cc1)(C(=O)O)c1ccccc1 (stereo not drawn)	5%	5%
O=C(COc1ccc(F)cc1)Nc1ccc2nc(SCCOc3ccccc3)sc2c1	-20%	-15%
O=C(CSc1ncnc2nc[nH]c12)NCc1cccc(Cl)c1	-3%	10%
Cc1cc(C)c2c(CN3CCOCC3)cc(=O)oc2c1	28%	-2%
Cc1cccc(C(=O)Oc2cccc(OC(=O)c3cccc(C)c3)c2C)c1	0%	6%
CCCCN(C)C(=O)C1CCC(Cn2c(=O)[nH]c3ccsc3c2=O)CC1 (stereo not drawn)	17%	80%[activator]
O=C(O)CCCNC(=O)Cn1ccc2ccc(Br)cc21	-9%	-11%
COc1cc(CN2CCC(C(O)(c3ccccc3)c3ccccc3)CC2)ccc1OCc1ccccc1	?	35µM*
O=C(COc1ccc2ccc(=O)oc2c1)NCCc1ccccc1	0%	-9%
O=C(Nc1nc(-c2ccc(Br)cc2)ns1)c1ccccc1F	0%	-19%
Cc1ccc(-c2ccc(C=C(C#N)C#N)n2C)cc1	28%	-7%
CC(C(=O)c1ccc(Cl)cc1)C1(O)C(=O)Nc2ccc(Br)cc21 (stereo not drawn)	0%	39%[activator]

Some values from the list.
For StopGo FLuc, `CCC(CO)NS(=O)(=O)c1ccc(Cl)c(C)c1` (stereo not drawn) is listed with 9%
For StopGo RLuc, `N#Cc1cc(C(=O)c2cc(F)ccc2O)cn(C2CC2)c1=O` is listed with 2%

(further entries)
SMILES	StopGo FLuc	StopGo RLuc
CCOc1cc(CNS(=O)(=O)c2ccc3c(c2)C(C)(C)C(=O)N3)cc(OCC)c1OCC	-14%	4%
CC(C)n1c(CN2CCN(Cc3ccccc3)CC2)nc2c1c(=O)n(C)c(=O)n2C	19%	5%
N#C/C(=C/c1ccc(O)cc1)c1nc2ccccc2[nH]1	307%[activator]	48%[activator]
COc1ccc(-c2nc(SCC(=O)c3ccc(Br)cc3)n[nH]2)cc1	42%[activator]	19%
CCN(CC)c1ccc(NC(=O)C2CCN(S(=O)(=O)c3ccc4c(c3)oc(=O)n4C)CC2)c(C)c1	-8%	-7%
c1ccc(-c2cc3ccccn3c2)cc1	0%	1%
COc1ccc(NC(=O)c2cc3c(=O)[nH]c4ccccc4c3n2C)cc1Cl	6%	50%[activator]
O=C1COc2ccc(C(=O)COC(=O)c3cc(Br)ccc3Cl)cc2N1	-15%	-15%
Cc1ccccc1OCCn1c(CCNC(=O)C2CCCCC2)nc2ccccc21	-20%	-7%
CCc1ccc(OCc2cc(=O)n3cc(C)sc3n2)cc1	30%	-8%
O=S(=O)(Nc1nc2ccccc2nc1Nc1ccc2c(c1)OCO2)c1ccc(Cl)cc1	22%	3%
Cc1cc(C)c(S(=O)(=O)Nc2ccc(Cl)cn2)cc1Br	12%	178%[activator]
Cc1n[nH]c(C)c1Cl	11%	-8%
CCC(=O)N1CCc2cc(Br)cc(S(=O)(=O)NCc3ccccc3)c21	4%	165%[activator]
Cc1cc(=O)oc2c(C)c(OC(C)C(=O)NCCN3CCOCC3)ccc12 (stereo not drawn)	1%	7%
Cc1ccccc1CN1CCCN(c2ccc(C(=O)NCCc3nc4ccccc4[nH]3)cc2)C1=O	?	?
CCN(c1cccc(C)c1)S(=O)(=O)c1cc2c(cc1C)n(C)c(=O)c(=O)n2C	6%	-11%
Cc1ccc(C)c(Cn2c3ccccc3c3cnn(CC(=O)NC4CCC(C)CC4)c(=O)c32)c1 (stereo not drawn)	-8%	-13%
COc1cc(OC)c(N(C)C(=O)C2CCCN(c3ncnc4c3nc3n4CCCCC3)C2)cc1Cl (stereo not drawn)	4%	-1%
CC(=O)Nc1ccc(C(=O)OCC(=O)N2CCOCC2)cc1	13%	0%
CCCOc1ccc(C(=O)Nc2cc3c(cc2N2CCOCC2)n(C)c(=O)n3C)cc1	-15%	-14%
CSc1nc2ccc(NC(=O)c3nn(C(C)C)c(=O)c4ccccc34)cc2s1	70%[activator]	-6%
COc1ccc(OCc2nc3ccccc3n2Cc2ccccc2Cl)cc1	0%	-2%
